Assay outcomes as filed in PubChem BioAssay.
Vaccinia stage – blocks a specific stage of Vaccinia orthopoxvirus infection, primary screen, cell-based, single point; actives 0.01% (n = 89,000); activity change (mCherry), % (test concentration not listed); Vaccinia-infected cells, mCherry/Venus stage reporter fluorescence; stronger effect = lower value; some inactives read as strong as hits;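 active = mCherry past -33% and 40 or more points under the early reporter, replicates agreeing; inconclusive = past -33% without that gap or agreement; tested in A549 cells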;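 also: scaled between vehicle wells and reference inhibitor wells; 23 nL library stock went into each well; one replicate is shown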
Vaccinia stage Venus – further read-out of Vaccinia stage, marked with its call; activity change (Venus), %; measured here: Venus reporter, other viral stage;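 negative = less Venus signal; first of two replicates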
Numbers without * were called inactive; ? = inconclusive; . = no result given. Only part of the results is shown (hit frequency here may not be typical).

Order of values – Vaccinia stage Venus | Vaccinia stage
- CC(C)NC(=O)NC[C@H]1[C@H](c2ccccc2)[C@H](CO)N1C(=O)c1ccccc1
→ 0 | 3
- CCCNC(=O)N1CC(=O)N2[C@H](CO)[C@H](c3ccc(-c4ccc(F)cc4)cc3)[C@@H]2C1
→ 3 | 6
- O=S(=O)(N[C@H]1CC[C@@H](CCn2cc(-c3cccc(F)c3)nn2)O[C@@H]1CO)c1ccccc1
→ 5 | 3
- Cc1ccc(S(=O)(=O)Nc2ccc3c(c2)C(=O)N([C@@H](C)CO)C[C@@H](C)[C@H](CN(C)C(=O)Nc2ccc(F)cc2)O3)cc1
→ 9 | 17
- C[C@@H]1CN([C@@H](C)CO)C(=O)c2cccc(NC(=O)c3ccc(-c4nccs4)cc3)c2O[C@@H]1CN(C)S(=O)(=O)c1ccccc1
→ -11 | -3
- CC(C)c1cn(CC[C@@H]2CC[C@@H](NS(=O)(=O)c3ccccc3)[C@@H](CO)O2)nn1
→ 19 | 12
- CCCC(=O)Nc1ccc2c(c1)OC[C@H](C)N(Cc1cccc(F)c1)C[C@@H](C)[C@@H](OC)CN(C)C2=O
→ -16 | -20
- CO[C@@H]1CN(C)C(=O)c2ccc(NC(=O)C3CC3)cc2OC[C@@H](C)N(CCC(F)(F)F)C[C@@H]1C
→ 4 | -1
- COc1ccc(S(=O)(=O)N[C@@H]2C=C[C@@H](CC(=O)N3CCc4ccccc4C3)O[C@H]2CO)cc1
→ 0 | 0
- COc1ccc2c3c(n(C)c2c1)[C@@H](CO)N(C(=O)NC(C)C)CC31CN(C(C)=O)C1
→ 14 | 25
- CCN(C[C@@H]1[C@@H](c2ccccc2)[C@@H](CO)N1C(=O)C1CC1)C(=O)NC1CCCC1
→ 17 | 12
- C[C@@H]1CN([C@@H](C)CO)C(=O)Cc2cc(NC(=O)C3CCCCC3)ccc2O[C@@H]1CN(C)CC1CCCCC1
→ -3 | -2
- C[C@@H](NC(=O)C[C@H]1C[C@@H]2c3cc(N(C)C)ccc3O[C@@H]2[C@@H](CO)O1)c1ccccc1
→ -2 | -10
- C[C@H](CO)N1C[C@H](C)[C@@H](CN(C)C(=O)CCCN(C)C)OCCCC[C@H](C)Oc2ccc(NC(=O)Nc3ccc(F)cc3)cc2C1=O
→ 10 | 22
- O=C(Nc1ccccc1F)N1[C@@H]2CNc3ccccc3[C@@H]2[C@@H]1CO
→ 12 | 5
- CCC(=O)Nc1ccc2c(c1)C(=O)N(C)C[C@H](OC)[C@H](C)CN(C(=O)c1ccncc1)[C@H](C)CO2
→ 13 | 24
- C[C@H](CO)N1C[C@H](C)[C@H](CN(C)S(=O)(=O)c2ccccc2F)Oc2ncc(C#Cc3cccnc3)cc2C1=O
→ -3 | -4
- O=C(Cc1ccncc1)NCC[C@@H]1CC[C@H](NC(=O)C2CC2)[C@@H](CO)O1
→ 3 | 7
- COc1cccc(-c2ccc3c(c2)[C@@H]2[C@@H](CCN2S(=O)(=O)c2ccccc2OC)[C@H](CO)N3)c1
→ -10 | -22
- C[C@@H]1CN([C@@H](C)CO)C(=O)c2cc(N(C)C)ccc2O[C@H]1CN(C)C(=O)Nc1cccc2ccccc12
→ 10 | 12
- CC(C)NC(=O)N(C)C[C@H]1Oc2ccc(NS(=O)(=O)c3cn(C)cn3)cc2CC(=O)N([C@H](C)CO)C[C@@H]1C
→ 8 | 20
- CO[C@H]1CN(C)C(=O)c2ccc(NC(=O)Nc3c(C)noc3C)cc2OC[C@@H](C)N(CCC(F)(F)F)C[C@@H]1C
→ -2 | -5
- Cc1noc(C)c1NC(=O)N(C)C[C@@H]1Oc2ccc(NC(=O)NC(C)C)cc2CC(=O)N([C@H](C)CO)C[C@@H]1C
→ 21 | 26
- CO[C@H]1CN(C)C(=O)c2cc(NC(=O)c3ccccc3F)ccc2OC[C@H](C)N(CC2CC2)C[C@@H]1C
→ -2 | -13
- CO[C@H]1CN(C)C(=O)c2cc(NC(C)=O)ccc2OC[C@H](C)N(Cc2cncnc2)C[C@@H]1C
→ 8 | 0
- CCS(=O)(=O)N1[C@H](C#N)[C@H](c2ccc(C#Cc3ccccc3F)cc2)[C@@H]1CO
→ -14 | -12
- CO[C@H]1CN(C)C(=O)c2ccc(NC(=O)Nc3ccccc3F)cc2OC[C@@H](C)NC[C@@H]1C
→ -15 | -4
- C/C=C/c1ccc([C@H]2[C@@H](CO)N(C(=O)CC)C23CN(S(=O)(=O)CC)C3)cc1
→ 11 | 7
- C[C@H]1CN([C@@H](C)CO)C(=O)c2cccc(NS(=O)(=O)c3cn(C)cn3)c2O[C@@H]1CN(C)C(=O)Nc1ccc(F)cc1
→ 14 | 14
- Cc1ccccc1-c1ccc2c(c1)O[C@@H](CN(C)C(=O)c1ccccn1)[C@H](C)CN([C@@H](C)CO)S2(=O)=O
→ -6 | -7

Gathered by group: the entries above containing a CF3 group (two)
Order of values – Vaccinia stage Venus | Vaccinia stage
- CO[C@@H]1CN(C)C(=O)c2ccc(NC(=O)C3CC3)cc2OC[C@@H](C)N(CCC(F)(F)F)C[C@@H]1C
→ 4 | -1
- CO[C@H]1CN(C)C(=O)c2ccc(NC(=O)Nc3c(C)noc3C)cc2OC[C@@H](C)N(CCC(F)(F)F)C[C@@H]1C
→ -2 | -5

(more compounds)
Order of values – Vaccinia stage Venus | Vaccinia stage
- COC(=O)N(C)C[C@H]1OCc2ccccc2-c2c(n(C)c3ccccc23)C(=O)N([C@@H](C)CO)C[C@@H]1C
→ -6 | -9
- CN1[C@@H]2c3ccc(C4=CCCC4)c(=O)n3C[C@H]1[C@H](CO)[C@H]2C(=O)N1CCOCC1
→ 7 | -3
- COc1ccc(NC(=O)N(C)C[C@@H]2Oc3cc(Br)ccc3S(=O)(=O)N([C@H](C)CO)C[C@H]2C)cc1
→ 0 | 5
- CCC(=O)N(C)C[C@@H]1Oc2ncc(/C=C/c3ccccc3)cc2C(=O)N([C@H](C)CO)C[C@H]1C
→ 5 | 15
- COc1cccc(CNC(=O)C[C@H]2CC[C@@H]3[C@H](COc4ccc(NS(=O)(=O)c5ccccc5F)cc4C(=O)N3C)O2)c1
→ 6 | 11
- CN1CCN(C(=O)C[C@@H]2C[C@H]3c4cc(NS(C)(=O)=O)ccc4O[C@H]3[C@H](CO)O2)CC1
→ 12 | 12
- O=C(CN1CCOCC1)N[C@@H]1CC[C@@H](CCNC(=O)C2CCC2)O[C@@H]1CO
→ 3 | -2
- C/C=C/c1ccc2c(c1)O[C@H](CN(C)C(=O)c1ccc3c(c1)OCO3)[C@H](C)CN([C@H](C)CO)S2(=O)=O
→ -15 | -15
- COc1ccc(S(=O)(=O)N(C)C[C@@H]2OCCCC[C@@H](C)Oc3ccc(NS(=O)(=O)c4c(C)noc4C)cc3C(=O)N([C@H](C)CO)C[C@@H]2C)cc1
→ -1 | -4
- CN(C)CC(=O)N[C@@H]1CC[C@H](CCNC(=O)C2CCCC2)O[C@H]1CO
→ 6 | -6

Profiles, looked up by structure. Values in the order: Vaccinia stage Venus | Vaccinia stage
COc1ccc(NC(=O)N(C)C[C@@H]2Oc3cc(Br)ccc3S(=O)(=O)N([C@H](C)CO)C[C@H]2C)cc1 in the list: 0 | 5
COc1ccc(S(=O)(=O)N(C)C[C@@H]2OCCCC[C@@H](C)Oc3ccc(NS(=O)(=O)c4c(C)noc4C)cc3C(=O)N([C@H](C)CO)C[C@@H]2C)cc1 in the list: -1 | -4

The main list resumes; the 2 compounds before the break are reprinted first.
Order of values – Vaccinia stage Venus | Vaccinia stage
- COc1ccc(S(=O)(=O)N(C)C[C@@H]2OCCCC[C@@H](C)Oc3ccc(NS(=O)(=O)c4c(C)noc4C)cc3C(=O)N([C@H](C)CO)C[C@@H]2C)cc1
→ -1 | -4
- CN(C)CC(=O)N[C@@H]1CC[C@H](CCNC(=O)C2CCCC2)O[C@H]1CO
→ 6 | -6
- Cc1ccc(S(=O)(=O)Nc2ccc3c(c2)C(=O)N([C@H](C)CO)C[C@@H](C)[C@@H](CN(C)C(=O)NC2CCCCC2)OCCCC[C@@H](C)O3)cc1
→ . | ?
- Cc1ccccc1-c1ccc([C@@H]2[C@@H](CO)N3CCCCN(C(=O)Nc4ccc(F)cc4)C[C@H]23)cc1
→ . | ?
- C[C@H](CO)N1C[C@H](C)[C@H](CN(C)Cc2ccc(Cl)c(Cl)c2)Oc2ccc(NS(=O)(=O)c3cn(C)cn3)cc2C1=O
→ 5 | 13
- Cc1noc(C)c1NC(=O)N(C)C[C@@H]1Oc2ccc(NC(=O)CCCN(C)C)cc2C(=O)N([C@@H](C)CO)C[C@H]1C
→ 3 | 2
- CN1CCN(C(=O)C[C@H]2C=C[C@@H](NC(=O)c3ccc4c(c3)OCO4)[C@H](CO)O2)CC1
→ -2 | 2
- COc1ccccc1-c1ccc2c(c1)O[C@H](CN(C)S(=O)(=O)c1ccc(F)cc1)[C@H](C)CN([C@H](C)CO)S2(=O)=O
→ . | ?
- COc1ccc(-c2cnc3c(c2)C(=O)N([C@H](C)CO)C[C@H](C)[C@H](CN(C)C(=O)Cc2cccnc2)O3)cc1
→ -2 | 2
- CCC(=O)N[C@H]1C=C[C@@H](CC(=O)NCc2cc(F)cc(F)c2)O[C@H]1CO
→ 8 | 9
- CCCC#Cc1ccc2c(c1)[C@@H]1[C@@H](CCN1C(=O)C1CCCCC1)[C@@H](CO)N2
→ -4 | -6
- COc1ccc(NC(=O)N(C)C[C@@H]2Oc3ncc(C#Cc4cccc(F)c4)cc3C(=O)N([C@H](C)CO)C[C@@H]2C)cc1
→ . | ?
- COc1ccccc1NC(=O)N[C@H]1CC[C@H](CCn2cc(-c3cccnc3)nn2)O[C@@H]1CO
→ 7 | -4
- COCC(=O)N(C)C[C@@H]1Oc2cc(C#CC(C)(C)O)ccc2S(=O)(=O)N([C@H](C)CO)C[C@@H]1C
→ 6 | 10
- COc1ccc(NC(=O)Nc2ccc3c(c2)[C@@H]2C[C@@H](CC(=O)NCc4ccccc4F)O[C@H](CO)[C@@H]2O3)cc1
→ -2 | 11
- CN1CCN(C(=O)C[C@@H]2CC[C@H]3[C@@H](COC[C@@H](O)CN3C(=O)C3CCCC3)O2)CC1
→ 7 | 9
- COCC#Cc1ccc2c(c1)O[C@@H](CN(C)Cc1ccc3c(c1)OCO3)[C@@H](C)CN([C@@H](C)CO)S2(=O)=O
→ . | ?
- C[C@H](CO)N1C[C@H](C)[C@H](CN(C)C)Oc2ccc(NS(=O)(=O)c3ccc(F)cc3)cc2CC1=O
→ 15 | 6
- C[C@@H]1CN([C@H](C)CO)C(=O)c2cc(-c3ccc(F)cc3)cnc2O[C@@H]1CN(C)C(=O)c1cccnc1
→ -8 | 15
- COCCNC(=O)C[C@H]1C=C[C@@H](NC(=O)NC2CCCC2)[C@@H](CO)O1
→ -3 | 6
- COc1cccc(-c2ccc(CC[C@H]3O[C@H]4CC[C@H](CO)O[C@H]4C[C@H]3NS(C)(=O)=O)cc2)c1
→ -21 | -28
- CCS(=O)(=O)Nc1ccc2c(c1)C(=O)N(C)C[C@H](OC)[C@H](C)CN(Cc1nccs1)[C@H](C)CO2
→ 9 | 36
- C[C@H](CO)N1C[C@H](C)[C@@H](CN(C)Cc2ccccc2)Oc2ccc(NC(=O)C3CCCCC3)cc2CC1=O
→ -17 | -32
- CNC(=O)C[C@@H]1CC[C@@H]2[C@@H](COc3ccc(NS(=O)(=O)c4cccc(F)c4)cc3C(=O)N2C)O1
→ -2 | 0
- COc1ccc(NC(=O)N2C[C@@H]3[C@H](c4ccccc42)[C@H](CO)N3C(=O)C2CC2)cc1
→ 6 | -7
- C[C@@H]1CN([C@H](C)CO)C(=O)c2cc(NC(=O)Cc3ccccc3)ccc2O[C@@H](C)CCCCO[C@H]1CN(C)C(=O)Nc1ccccc1
→ -19 | -22
- CCCNC(=O)N(C)C[C@H]1Oc2ncc(C#Cc3ccncc3)cc2C(=O)N([C@@H](C)CO)C[C@H]1C
→ 6 | 20
- O=C(C[C@H]1C=C[C@H](NC(=O)c2ccncc2)[C@@H](CO)O1)NCC1CC1
→ 3 | 1
- Cc1noc(C)c1NC(=O)N(C)C[C@@H]1Oc2c(NC(=O)C3CC3)cccc2C(=O)N([C@H](C)CO)C[C@H]1C
→ 13 | 15
- CCNC(=O)C[C@@H]1CC[C@@H](NC(=O)C2CCOCC2)[C@@H](CO)O1
→ 5 | 7
- C[C@@H]1CN([C@H](C)CO)C(=O)c2cccc(NC(=O)CCCCCC(=O)Nc3ccccc3N)c2O[C@@H]1CN(C)Cc1ccc(C(F)(F)F)cc1
→ . | ?
- C[C@@H]1CN([C@H](C)CO)C(=O)c2cc(C#CCN(C)C)cnc2O[C@@H]1CN(C)Cc1ccccc1F
→ -4 | 15
- C[C@H](CO)N1C[C@H](C)[C@@H](CN(C)Cc2ccccn2)Oc2cc(-c3cncnc3)ccc2S1(=O)=O
→ -2 | 8
- COC(=O)[C@H]1[C@H](CO)[C@H]2Cn3c(ccc(-c4ccccc4F)c3=O)[C@@H]1N2CC1CCCC1
→ 5 | -6
- C/C=C/c1ccc2c(c1)O[C@@H](CN(C)Cc1cccc(F)c1)[C@@H](C)CN([C@@H](C)CO)S2(=O)=O
→ . | ?
- C[C@@H]1CCCCO[C@@H](CN(C)CC2CCCCC2)[C@H](C)CN([C@@H](C)CO)C(=O)c2cc(NS(=O)(=O)c3cccs3)ccc2O1
→ -19 | -23
- COC(=O)[C@@H]1[C@@H](CO)[C@@H]2Cn3c(ccc(-c4ccc(F)cc4)c3=O)[C@H]1N2Cc1ccccc1
→ -8 | -12
- CCOC(=O)N(C)C[C@@H]1OCc2cn(nn2)CCCC(=O)N([C@@H](C)CO)C[C@@H]1C
→ 13 | 15
- CNC[C@H]1Oc2ccc(NS(=O)(=O)c3ccc(OC)cc3)cc2C(=O)N([C@@H](C)CO)C[C@H]1C
→ -2 | -1
- C[C@H]1CN([C@@H](C)CO)C(=O)c2cccc(NC(=O)Nc3ccc(F)cc3)c2O[C@@H]1CN(C)Cc1ccc(Cl)c(Cl)c1
→ -10 | -16
